Mtb bLac sens – beta-lactam sensitization of Mtb H37Rv. M. tuberculosis H37Rv growth with meropenem, percent inhibition; hits of this screen are not shown here. inhibition, % at 25 µM. 330,000 tested, 0.27% active;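 active means about 74% or more and at least 40 points above the plate without the antibiotic, then above 30% in a dose series; inconclusive means first-round hits that could not be retested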;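 further: growth measured after seven days incubation then overnight dye step; 0% = bacteria only wells and 100% = bacteria with antibiotic; twin plates without the antibiotic show which effects depend on it; some results filed as inactive read as strong as hits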
* marks the source's active call; other numbers are inactive results; ? = inconclusive. Some of the compounds tested, so the mix of outcomes need not match the whole.

Structure	Mtb bLac sens
O=C(NC1CCC(O)CC1)c1cc(Cl)c2c(c1)OCCO2 (stereo not given)	-7
COc1ccc(OC)c(NC(=O)c2cccnc2)c1	-6
COC(=O)C(Cc1ccccc1)NC(=O)c1ccc(NS(=O)(=O)c2ccc3[nH]c(=O)[nH]c3c2)cc1 (stereo not given)	-4
CCN(c1ccccc1)S(=O)(=O)c1ccc(C(=O)NCc2ccco2)cc1	-7
Cc1ccc(C2(c3ccccc3)NC(=O)N(CC(=O)NC3(C#N)CCCC3)C2=O)cc1C (stereo not given)	-3
C[C@]12CCC3C(CC[C@H]4C[C@H](O)CC[C@]34C)C1[C@@H](O)[C@@H](O)[C@@H]2O (stereo not given in full)	3
Cn1cnnc1SCC(=O)Nc1ccc2ccccc2c1	-12
CCc1noc(C)c1C(=O)NNC(=O)c1cc(OC)cc(OC)c1	3
CCOc1ccc(NC(=O)CNC(=O)c2nn(-c3ccc(OC)c(OC)c3)c(=O)c3ccccc23)cc1	1
CN(CC(=O)Nc1ccc(OC(F)(F)F)cc1)C(=O)/C=C/c1cc2c(cc1[N+](=O)[O-])OCO2	?
CCOc1ccc(NC(=O)CCN2C(=O)CSc3ccccc32)cc1	4
C[C@]12CCC3C(CC[C@H]4C[C@@H](O)CC[C@]34C)C1CC[C@@]2(O)C(F)(F)F (stereo not given in full)	-1
CCN(CC)S(=O)(=O)c1ccc(-c2cn3cc(Cl)ccc3n2)cc1	0
CCC1CCc2sc(C(=O)NNC(=S)NCC3CCCO3)cc2C1 (stereo not given)	3
COc1ccc(C(=O)Nc2ccc(Cl)c(S(=O)(=O)N3CCOCC3)c2)cc1	0
CCn1c(CCC(N)=O)nnc1SCC(=O)c1cc(C)n(C2CC2)c1C	-2
COC(=O)C1=C(C)N(Cc2ccccc2)C(=NCc2ccco2)N[C@H]1c1cccc(F)c1	2
Cc1nn(-c2ccccc2)c(Cl)c1C(=O)NCC1CCCO1 (stereo not given)	1
CC(=O)c1cccc(NC(=O)CSc2nc3ccccc3c(=O)n2CCCN2CCOCC2)c1	-12
C[C@]12CCC3C(C[C@@H](O)[C@H]4C[C@@H](O)CC[C@]34C)C1CC[C@@H]2O (stereo not given in full)	-6
Cc1ccc(Nc2nc(N)c3ccccc3n2)cc1Cl	-1
O=C(COC(=O)Cc1ccsc1)Nc1ccc(Cl)cn1	4
COc1ccc(C(CNC(=O)c2ccco2)N2CCCC2)cc1 (stereo not given)	-4
CC(C)CC1NC(=O)N(CC(=O)Nc2ccc(-c3ccccc3)cc2)C1=O (stereo not given)	-5
O=C(CSc1nnc(NC2CC2)s1)Nc1ccc(N2CCOCC2)cc1	-2

The list goes on:
Structure	Mtb bLac sens
CC(CCN1C(N(C)C)=NC[C@@H]1C)c1ccccc1 (stereo not given in full)	0
CCC(=O)NN1CCN(c2ccncc2S(=O)(=O)N2CCCCC2)CC1	-3
Cn1ccc(C(=O)OCC(=O)Nc2cccc(Cl)c2)n1	-7
CCc1ccccc1NC(=O)CN(C)C(=O)c1cccc(S(=O)(=O)N2CCCCCC2)c1	-1
CC1CCC2(CC1)NC(=O)N(CC(=O)NCCc1ccccc1)C2=O (stereo not given)	0
Cc1ccc2c(c1)C1C[N+](C)(CC(=O)Nc3ccccc3Cl)CCC1N2C(=O)c1ccccc1Cl (stereo not given)	12
CC(=O)C[C@@H](O)CC(=O)[C@@H]1OC(=O)[C@H](C)CCCCc2ccccc21	-3
O=C(COC(=O)[C@@H]1CCCN1C(=O)c1cccs1)Nc1ccc(Br)cc1	-3
Cc1cc(C)n(CCNC(=O)c2ccco2)n1	-8
O=C(NCCO)c1nc(C(=O)c2ccccc2)c2ccccc2n1	-5
Cn1c(SCc2c(F)cccc2Cl)nc2ccccc2c1=O	-3
Cc1cc(C)n2nc(C(=O)OCC(=O)Nc3ccc(C)c(S(=O)(=O)N4CCOCC4)c3)nc2n1	-9
Cc1nn(CC(=O)NC2CCC(C)CC2)c(C)c1[N+](=O)[O-] (stereo not given)	-3
Cc1onc(-c2ccccc2)c1C(=O)N1CCN(Cc2ccccc2)CC1	-6
NC(=O)c1ccsc1NC(=O)COC(=O)Cc1ccccc1Cl	-1
CCCc1ccc(C(=O)CN2C(=O)C(=O)N(C3CCCC3)C2=O)cc1	-7
C=CC[C@@H](CC(=O)N[C@H](CO)Cc1ccccc1)C(=O)NC[C@H](OC(=O)[C@@H](CC=C)Cc1ccc(F)cc1)c1ccccc1	-4
Cc1cc(OCC(=O)OCC(=O)N2CCc3ccccc3C2)ccc1Cl	55
Cc1nn(C2CCS(=O)(=O)C2)c(C)c1CN(C)C(=O)c1cccc(Cl)c1 (stereo not given)	0
O=c1cc(-c2ccc(O)c(O)c2)oc2cc(O)c([C@@H]3O[C@H](CO)[C@@H](O)[C@H](O)[C@H]3O)c(O)c12	6
O=S(=O)(c1ccc(SCc2ccccc2)nc1)N1CCCC1	7
CCC(CO)Oc1cc(NCc2ccccc2)c2ncn(C3CCCC3)c2c1 (stereo not given)	2
COc1ccc2nc(SCC(=O)NC3CCCCC3)[nH]c2c1	2
Cc1ccc(-c2c(C)sc3nc(CN4CCN(CC(=O)NC5CC5)CC4)[nH]c(=O)c23)cc1	57
Cc1[nH]c2ccc(C(=O)NC3CCCC3)cc2c1C	-1

Grouped by structure: the entries above with a CF3 group.
Structure	Mtb bLac sens
CN(CC(=O)Nc1ccc(OC(F)(F)F)cc1)C(=O)/C=C/c1cc2c(cc1[N+](=O)[O-])OCO2	?
C[C@]12CCC3C(CC[C@H]4C[C@@H](O)CC[C@]34C)C1CC[C@@]2(O)C(F)(F)F (stereo not given in full)	-1

3 entries from above in another layout:
O=c1cc(-c2ccc(O)c(O)c2)oc2cc(O)c([C@@H]3O[C@H](CO)[C@@H](O)[C@H](O)[C@H]3O)c(O)c12
  Mtb bLac sens: 6
O=S(=O)(c1ccc(SCc2ccccc2)nc1)N1CCCC1
  Mtb bLac sens: 7
CCC(CO)Oc1cc(NCc2ccccc2)c2ncn(C3CCCC3)c2c1 (stereo not given)
  Mtb bLac sens: 2

Carrying on:
Structure	Mtb bLac sens
COc1ccc(OC)c(S(=O)(=O)NC(C)c2ccc(-n3ccnc3)cc2)c1 (stereo not given)	0
COc1ccccc1S(=O)(=O)NCc1ccc(C(=O)NC(C)c2ccccn2)cc1 (stereo not given)	-2
O=C(Cc1c(F)cccc1Cl)OCC(=O)N1CCc2ccccc21	-1
Cc1ccc(NC(=O)CN(C)C(=O)CSc2nccn2C)cc1	-8
O=C(COC(=O)Cc1ccsc1)Nc1ccccc1Cl	0
O=C(CNc1ccccc1F)Nc1cc(S(=O)(=O)N2CCCCC2)ccc1Cl	-2
O=C1CCC/C=C/C[C@@H](CC(=O)N(CCO)Cc2ccccc2)C(=O)NC[C@@H](c2ccccc2)O1	3
COc1ccc(S(N)(=O)=O)cc1C(=O)OCC(=O)N1c2ccccc2NC(=O)C1(C)C	-7
COc1cc(/C=C/C(=O)O)ccc1OS(=O)(=O)c1cc(Br)ccc1C	-4
Cc1ccc(OCCNC(=O)CNC(=O)c2ccc(Cl)c([N+](=O)[O-])c2)cc1	-8
CC(C)(C)OC(=O)NCCCCCO	-6
CCCCCCSc1ccc(-c2nc3ccc(Cl)cn3c2NCc2ccccc2)cc1	-4
CCOc1ccc(NC(=O)CN(C)C(=O)CCNC(=O)c2ccco2)cc1OCC	3
CCCCCCNC(=O)N[C@H](C(=O)NCCC[C@H]1CN2C(=NC[C@H]2C)N1CCC(c1ccccc1)c1ccccc1)C(C)O (stereo not given in full)	91
O=C1Cc2cc(S(=O)(=O)Nc3ccc(F)cc3Cl)ccc2N1	-4
CC(/C=C/C1[C@H](C)C[C@H](O[C@@H]2O[C@H](CO)[C@@H](O)[C@H](O)[C@H]2O)CC1(C)C)O[C@H]1O[C@H](CO)[C@@H](O)[C@H](O)[C@H]1O (stereo not given in full)	-13
N#Cc1cccnc1N1CCN(C(=O)c2cccc3c2C(=O)c2ccc(-c4ccc(F)cc4OCc4ccccc4)cc2S3(=O)=O)CC1	7
CCC(C)(C)C1CCC(NC(=O)c2ccc(S(=O)(=O)N3CCOCC3)cc2)CC1 (stereo not given)	4
COc1ccccc1CNC(=O)COC(=O)c1ccc2c(=O)n3c(nc2c1)CCCCC3	57
Cc1cccc(N2CC(C(=O)OCC(=O)Nc3sccc3C(N)=O)CC2=O)c1C (stereo not given)	-6
O=C(COC(=O)c1ccc2ccccc2n1)NC1CCCCC1	7
Cc1ccccc1NC(=O)C1=CC=CN2CCS(=O)(=O)N=C12	-7
COc1ccc(C(=O)Nc2cc(S(=O)(=O)N3CCCC3)ccc2Cl)cc1	-12
O=C(Nc1ccccc1)c1nc[nH]c1C(=O)N1CCN(c2ccccc2)CC1	-6
CCN(CC)S(=O)(=O)c1ccc2[nH]c(=O)cc(C(=O)NCc3ccccc3)c2c1	-6

Quoted at random: 2 records from the list, in no set order.
Structure	Mtb bLac sens
Cc1ccc(OCCNC(=O)CNC(=O)c2ccc(Cl)c([N+](=O)[O-])c2)cc1	-8
N#Cc1cccnc1N1CCN(C(=O)c2cccc3c2C(=O)c2ccc(-c4ccc(F)cc4OCc4ccccc4)cc2S3(=O)=O)CC1	7

Part of the list above, with each value named.
> CCCCCCSc1ccc(-c2nc3ccc(Cl)cn3c2NCc2ccccc2)cc1
  Mtb bLac sens: -4

> CCOc1ccc(NC(=O)CN(C)C(=O)CCNC(=O)c2ccco2)cc1OCC
  Mtb bLac sens: 3

The listing continues:
Structure	Mtb bLac sens
CCCCn1c(N)c(N(Cc2ccccc2OC)C(=O)c2cc(CC)c(C)s2)c(=O)[nH]c1=O	2
O=C(CSc1nnnn1-c1ccccc1)NCC1(N2CCOCC2)CCCCC1	-3
C[C@H](CO)N1C[C@H](C)[C@@H](CN(C)C(=O)Nc2ccc(C(F)(F)F)cc2)Oc2c(NS(=O)(=O)c3cccs3)cccc2C1=O	6
COc1ccc(Cl)cc1NC(=O)CN(C)C(=O)Cc1n[nH]c(=O)c2ccccc12	-5
COCCN(CC(=O)Nc1ccccc1C(F)(F)F)C(=O)/C=C/c1ccc2ccccc2n1	4
Cc1ccc(SCCC(=O)NNC(=O)c2ccccc2F)cc1	15
CC(=O)N1CCN(c2ccc(NC(=O)c3ccccc3Cl)cc2)CC1	-12
COc1cccc(CNC(=O)COC(=O)C23CC4CC(CC(Cl)(C4)C2)C3)c1	1
COc1ccc(-n2nnnc2SCC(=O)N(C)C2CCS(=O)(=O)C2)cc1 (stereo not given)	2
COC(=O)C1=C(C)N(Cc2ccccc2)C(=NCCN2CCOCC2)N[C@H]1CCc1ccccc1	-3
Cn1cccc1C(=O)OCc1cc(-c2ccco2)on1	-4
COCCN(C(=O)COC(=O)Cc1c(C)nc2ccccc2c1C)c1c(N)n(CC(C)C)c(=O)[nH]c1=O	-3
Cc1ccccc1-c1cc(C(=O)O)nn1CC1CC(c2cccc([N+](=O)[O-])c2)=NO1 (stereo not given)	-2
O=C(Nc1cc(S(=O)(=O)N2CCCC2)ccc1Cl)c1ccncc1	-6
CC(CCc1ccccc1)NC(=O)c1cccc(F)c1 (stereo not given)	1
C#CCOCCOCCOCCNc1nc(OC)nc(N2CCN(C(=O)[C@H](CCC(=O)O)n3cc(C(N)CO)nn3)CC2)n1 (stereo not given in full)	-3
Cc1ccc(S(=O)(=O)N2CCN(C(=O)Cn3c(=O)oc4ccccc43)CC2)cc1	-4
COc1cccc(NC(=O)C2C3C=CC(C3)C2C(=O)O)c1 (stereo not given)	-11
CCC(=O)NC(c1cccs1)c1cc(Cl)c2ccccc2c1O (stereo not given)	-5
CC[C@@H]1C=C(C(=O)O)[C@H](c2ccc(C#N)cc2)N1S(=O)(=O)c1ccc(C)cc1	-4
C[C@H](CO)N1C[C@H](C)[C@@H](CN(C)S(C)(=O)=O)Oc2c(NC(=O)Nc3ccccc3)cccc2C1=O	-2
CCN(C(=O)CN1C(=O)NC(c2ccccc2)(c2ccc(C)c(C)c2)C1=O)C1CCS(=O)(=O)C1 (stereo not given)	-11
O=C(Cn1cc([N+](=O)[O-])ccc1=O)N1CCc2ccccc21	-4
N#CCCN(C(=O)COC(=O)c1n[nH]c2ccccc12)c1ccccc1	-5
COc1ccc([C@H]2CC(=O)C=C(c3ccc4cc[nH]c4c3)C2)cc1	70

New compounds follow:
Structure	Mtb bLac sens
O=C1C=C(c2ccc(-c3ccccc3)cc2)C[C@@H](c2ccc(F)cc2)C1	-11
CNC(=O)c1c(I)c(C(=O)NCC(=O)Nc2c(I)c(C(=O)O)c(I)c(C(=O)NCCO)c2I)c(I)c(N(C)C(C)=O)c1I	-12
CCOc1ccc(NC(=O)C(C)Oc2ccc(C#N)cc2)cc1S(=O)(=O)N1CCCC1 (stereo not given)	3
O=C(CO)C(O)C(O)C(O)CO (stereo not given)	-5
O=C(Nc1ccccc1C(=O)O)c1cccc(N2C(=O)c3ccccc3C2=O)c1	-1
CC(C)n1cnnc1SCC(=O)NCC(=O)Nc1ccc(F)cc1	-2
COc1cc(-c2noc(C)c2C(=O)NCCCn2ccnc2)cc(OC)c1OC	4
CCOc1cc(N2CCOCC2)c(OCC)cc1NC(=O)c1cc(S(=O)(=O)N2CCOCC2)ccc1C	-13
COc1ccc(C2Nc3ccccc3C(=O)N2Cc2ccccc2)cc1 (stereo not given)	-2
COC(=O)C1=C(c2ccc3ccccc3c2)C[C@@H]2CC[C@H]1N2C(=O)NC1Cc2ccccc2C1	-4
